High-throughput results: PubChem, Fisher Drug Discovery Resource Center
NPYLR7 agonist – activates Aedes aegypti NPYLR7 receptor. HEK293T NPYLR7/Galpha15, GCaMP6s calcium fluorescence. AID 1259423. 270,000 tested, 0.15% active. activation, % at 10 µM; in the data active = activation above about 40%;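 also: 0% = vehicle and 100% = reference agonist at the receptor; some compounds past the cut are filed as inactive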
NPYLR7 agonist max-min – also measured in NPYLR7 agonist; calls as there; activation, %; measured here: Max-Min RFU normalised activation; some inactives read as strong as hits;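 span of the calcium signal over five minutes; 0% = vehicle and 100% = native peptide agonist; compound fluorescence can raise it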
Starred values were filed as active, the others as inactive; & = joins results of further samples.

Every second line gives: NPYLR7 agonist | NPYLR7 agonist max-min
- O=C(NCc1ccc(F)cc1)c1cc2ccccc2oc1=O
    -8 | -8
- COC(=O)C1=C(C)NC2=C(C(=O)CC(c3ccc(OC)cc3)C2)C1c1ccc(O)cc1 (stereo unspecified)
    -4 | -5
- O=C(c1ccco1)N1CCN(C(c2ccccc2)c2ccc(Br)cc2)CC1 (stereo unspecified)
    4 | -4
- CCOc1ccc(C2CC(=O)NCc3nc4cc(C)ccn4c32)cn1 (stereo unspecified)
    16 | 12
- O=C(c1csc(-c2cc3ccccc3[nH]2)n1)N1CCN(c2ccccc2)CC1
    10 | 9
- O=C(Nc1ccc(-n2nc(OCc3ccc(F)cc3)nc2-c2cccc(F)c2)cc1)Nc1cccc(Cl)c1
    10 | -2
- CCCS(=O)(=O)Nc1ccc(N(C)C)c(CN(C(=O)c2ccc(F)cc2)C(C)C(C)C)c1 (stereo unspecified)
    33 | 32
- CCCn1cnc2c1c(=O)n(Cc1c(C)noc1C)c(=O)n2C
    0 | -1
- Cc1ccc(NC(=O)CN2CN(c3ccccc3)C3(CCN(C(=O)c4cccc(Br)c4)CC3)C2=O)cc1
    26 | 28
- CCCN=C(NC(=O)c1ccccc1F)OCC
    10 | 12
- CCC(C)NC(=O)Cn1c(=O)n(-c2ccccc2F)c(=O)c2ccccc21 (stereo unspecified)
    -3 | 5
- Cc1nn(Cc2ccccc2)c2nc(C(C)(C)C)[nH]c12
    -1 | -5
- Cc1ccc(Cn2c(C)c(C(=O)NCc3ccccc3)sc2=O)cc1
    -1 | -1
- CCc1c(C#N)c(N)nc(SCC(=O)c2ccc(Cl)c(Cl)c2)c1C#N
    0 | -4
- COc1ccc(CN2CC[C@H]3CC(=O)N([C@@H](Cc4cnc[nH]4)C(N)=O)CC[C@H]3C2)c(O)c1
    -11 | -16
- COc1ccc(C2=NN(c3ccccc3)C(C#N)C2)cc1 (stereo unspecified)
    2 | 7
- O=C(c1cccs1)C1CCCN(Cc2nc(Cc3ccccc3F)no2)C1 (stereo unspecified)
    4 | 1
- COc1ccc(-c2nc(CN(C)Cc3nncn3C)c(C)o2)c(C)c1C
    23 | 18
- CCc1cc2c(=O)n(CCc3ccc(OC)c(OC)c3)c(SCCN3CCOCC3)nc2s1
    10 | 8
- CN(C)C(=O)C(F)(F)C(F)(F)C(F)(F)C(F)(F)C(=O)N(C)C
    4 | 2
- O=C(CCc1ccccc1O)N1N=C(c2ccccc2)CC1(O)C(F)(F)F (stereo unspecified)
    -2 | 0
- O=C(COc1ccccc1)Nc1sc2c(c1C(=O)NCC1CCCO1)CCCC2 (stereo unspecified)
    14 | 11
- CCN1C(=O)C(=Cc2cccc(OC)c2OC(C)C)SC1=S
    5 | -1
- COc1c(C(=O)N2CCCc3c(C)cc(C)cc32)c(C)nn1C
    6 | -10
- CCOC(=O)c1nc2ccccc2nc1N1CCCN(C(=O)CCCC(=O)OC)CC1
    7 | 5
- Cc1nc(C(C)N(C)C(=O)CCN2CCCCCC2=O)c(C)s1 (stereo unspecified)
    -4 | -4
- COc1cccc(Cc2nc3c(c(N4CCOCC4)n2)CN(S(=O)(=O)c2cccc(C(F)(F)F)c2)CC3)c1
    -3 | 5
- Cc1cc(C)c(C)c(S(=O)(=O)NCc2ccc(C(N)=O)cc2)c1C
    -2 | -4
- CC1(C)C2CCC1(C)C(NCc1csc(-c3ccccn3)n1)C2 (stereo unspecified)
    6 | 6
- Cc1ccccc1C1CCCN1C(=O)CCCc1nc(-c2ccco2)no1 (stereo unspecified)
    -8 | -9
- COCC1(C(=O)N(C)Cc2cc(-c3cccs3)n[nH]2)CCC1
    5 | 5
- Cc1ncc2c(n1)CCC(N)C2 (stereo unspecified)
    8 | 13
- COc1ccc(CN(Cc2ccco2)C(=O)c2cccc(F)c2)cc1OS(=O)(=O)c1ccc(NC(C)=O)cc1
    16 | 4
- Cc1cccc(CN2CCCC3(CCN(C(=O)c4cnn(-c5ccccc5)c4)C3)C2)c1 (stereo unspecified)
    13 | 1
- CNC(=O)c1ccc(S(=O)(=O)Nc2sc3c(c2C(N)=O)CCC(C)C3)cc1 (stereo unspecified)
    0 | 6
- COc1ccc(-c2noc(CN3CCN(C(C)=O)CC3)n2)cc1
    8 | -2
- COC(=O)C1CC(O)CN1C(=O)c1nn(C)c(=O)c2ccccc12 (stereo unspecified)
    0 | -3
- O=C1N(Cc2ccccc2)C(c2cccc(F)c2)C1(F)F (stereo unspecified)
    3 | 0
- C#CCOCC(O)CN(Cc1ccco1)Cc1c(-c2ccccc2)noc1N(CC)CC (stereo unspecified)
    18 | 13
- O=C(COC(=O)c1ccccc1Cl)c1ccc(Br)cc1
    4 | 2
- CN(CC1CCCO1)C(=S)Nc1ccc2ccccc2c1 (stereo unspecified)
    2 | 10
- CCOCC(=O)Nn1cnc2c(cnn2-c2ccc(C)c(C)c2)c1=O
    3 | -3
- Nc1nc(CSc2nc3ncccc3[nH]2)nc(N2CCCCC2)n1
    10 | 7
- CCn1ccc(C(=O)N(CCCN2CCOCC2)c2nc3c(C)ccc(C)c3s2)n1
    0 | -2
- Cc1cc(NCc2nnc3n2CCC3)c2ccccc2n1
    -3 | -6
- Cc1ncc(CN(C)CC2CCN(c3ccccc3)C2)[nH]1 (stereo unspecified)
    0 | 2
- Cc1ccc(OCc2ccc(-c3nc(C#N)c(NCCCN4CCOCC4)o3)o2)cc1
    1 | 22
- O=C1/C(=C/c2ccc(Cl)cc2)C=C(c2ccccc2)N1c1ccc(-c2ccccc2)cc1
    3 | 5
- COc1ccccc1-n1ncc2c(C)nnc(SCC(=O)N3CCN(c4ccccc4)CC3)c21
    -13 | -17
- CCC(=O)Nc1cccc(-c2cn3c(n2)CCCC3)c1
    3 | 2

Molecules shown so far that contain an aryl thioether with sulfur outside any ring:
Every second line gives: NPYLR7 agonist | NPYLR7 agonist max-min
- CCc1c(C#N)c(N)nc(SCC(=O)c2ccc(Cl)c(Cl)c2)c1C#N
    0 | -4
- CCc1cc2c(=O)n(CCc3ccc(OC)c(OC)c3)c(SCCN3CCOCC3)nc2s1
    10 | 8
- Nc1nc(CSc2nc3ncccc3[nH]2)nc(N2CCCCC2)n1
    10 | 7
- COc1ccccc1-n1ncc2c(C)nnc(SCC(=O)N3CCN(c4ccccc4)CC3)c21
    -13 | -17

(list continues)
Every second line gives: NPYLR7 agonist | NPYLR7 agonist max-min
- CC(C)(C)c1ccc(C(=O)N2CCC2(C)C(=O)NS(=O)(=O)c2cccc(OC(F)F)c2)cc1 (stereo unspecified)
    2 | 2
- COc1ccc(S(=O)(=O)N(CC(=O)N(CCc2c[nH]c3ccccc23)Cc2ccccc2)C(C)C)cc1
    -8 | 1
- COc1ccc(CCNC(=O)c2ccccc2N2CCC(NS(=O)(=O)c3ccc(F)cc3)CC2)cc1
    13 | 7
- COc1cccc(CC2CN(C(=O)c3cnc(C(C)C)nc3C)CCO2)c1 (stereo unspecified)
    6 | 6
- COCCNC(=O)CN1CN(c2ccccc2)C2(CCN(C(=O)C(C)(C)CCl)CC2)C1=O
    2 | 5
- O=C(CCS(=O)(=O)c1ccccc1)N1CCC2(CC1)OCCN2S(=O)(=O)c1ccccc1
    -3 | -5
- CC(=O)N1CCN(C(=O)c2nn(-c3ccccc3)c(=O)n(Cc3ccc(C(F)(F)F)cc3)c2=O)CC1
    13 | 14
- CC(=O)NC(c1ccccc1)c1nc(-c2cccc(C(=O)O)c2)cs1 (stereo unspecified)
    6 | 3
- Cc1ccc(NC(=O)N(Cc2ccco2)Cc2c(-c3ccccc3)noc2N2CCCC2)cc1
    -8 | -7
- c1csc(C2CCCN2c2nc3nonc3nc2N2CCSCC2)n1 (stereo unspecified)
    2 | 0
- CC1(C)OCC(CNC(=O)c2ccccc2-c2ccc(C(F)(F)F)cc2)O1 (stereo unspecified)
    -7 | -7
- CN(C)c1ccc(S(=O)(=O)N(C)C)cc1N
    3 | 0
- Cc1cccc2sc(=NC(=O)c3ccccc3S(C)(=O)=O)n(C)c12
    4 | 2
- CC(C)(C)c1cc2nc(C(=O)N3CCN(c4cccc(C(F)(F)F)c4)CC3)cc(-c3ccccc3)n2n1
    20&-11 | 24&-6
- Cc1nc(SCC(=O)c2ccc(Cl)cc2)c(C#N)c(C)c1C
    -5 | -10
- COc1ccc(C(=O)C=Cc2cccs2)c(OC)c1
    2 | 1
- CN1CCN(C(CNS(=O)(=O)c2ccccc2F)c2cccn2C)CC1 (stereo unspecified)
    3 | 1
- CC(=O)C1=C(c2ccc(C)c(C)c2)N(C(C)=O)n2c(nnc2-c2ccc(C)cc2)S1
    4 | 1
- COC(=O)c1cccc(-c2cccc(C(F)(F)F)n2)c1
    3 | 0
- CCCC(C)NC(=O)COc1ncnc2scc(-c3ccc(C)cc3)c12 (stereo unspecified)
    3 | -1

Some of the entries so far, with each value named.
> O=C(NCc1ccc(F)cc1)c1cc2ccccc2oc1=O
  NPYLR7 agonist: -8
  NPYLR7 agonist max-min: -8
> COCCNC(=O)CN1CN(c2ccccc2)C2(CCN(C(=O)C(C)(C)CCl)CC2)C1=O
  NPYLR7 agonist: 2
  NPYLR7 agonist max-min: 5
> O=C(Nc1ccc(-n2nc(OCc3ccc(F)cc3)nc2-c2cccc(F)c2)cc1)Nc1cccc(Cl)c1
  NPYLR7 agonist: 10
  NPYLR7 agonist max-min: -2
> CCc1cc2c(=O)n(CCc3ccc(OC)c(OC)c3)c(SCCN3CCOCC3)nc2s1
  NPYLR7 agonist: 10
  NPYLR7 agonist max-min: 8

Going on with the list.
Every second line gives: NPYLR7 agonist | NPYLR7 agonist max-min
- COC(=O)c1sccc1S(=O)(=O)NC1CCC2CCCCC2C1 (stereo unspecified)
    -1 | -1
- CC(=O)c1ccc(N=c2oc3ccc(Br)cc3cc2C(N)=O)cc1
    -12 | -15
- Cc1cc2sc(NC(=O)N(C)C(C)c3cccnc3)nc2s1 (stereo unspecified)
    -6 | -7
- Cc1ccc(C)c(C=C(C#N)S(=O)(=O)c2cc(Br)ccc2Br)c1
    8 | 11
- C=CCn1cc(CN2CCCC2c2nc(-c3ccccc3)no2)c(C)n1 (stereo unspecified)
    -1 | -7
- O=C(Cn1cc(-c2nnc(-c3ccccc3)o2)c2ccccc21)N1CCCC1
    2 | 8
- CC(C)(C)n1nc2c(c1NC(=O)c1ccc(S(=O)(=O)N3CCCCC3)cc1)CSC2
    -5 | -4
- CC(C)Cc1cc(C(=O)N2CCN(C)C(c3ccccc3)C2)nc(=O)[nH]1 (stereo unspecified)
    15 | 9
- CN(Cc1ccccc1F)c1nn(C)c(=O)n(C)c1=O
    1 | -1
- O=C(CN1CCOc2ccccc2C1)N1CCC(Oc2ncccn2)CC1
    -6 | -9
- CC(C)(C)C(=O)N1CCN(Cc2nc3ccccc3n2Cc2ccccc2)CC1
    -1 | -3
- CSc1nnc2c(n1)OC1(Nc3ccccc3-2)C(=O)Nc2ccc(Br)cc21 (stereo unspecified)
    7 | 2
- COCCOc1nc(-c2ccco2)n(-c2ccc(NC(=O)c3ccc([N+](=O)[O-])cc3)cc2)n1
    8 | 9
- COc1cccc(CN2CCC2(C)C(=O)Nc2cccc(Br)c2C)c1OC (stereo unspecified)
    -2 | -8
- O=C(Nc1nnc(C2CC2)s1)c1cc2c(=O)n3ccccc3nc2s1
    -3 | -6
- CCc1nn(-c2ccc(F)cc2)c(N2CCN(C(C)C)CC2)c1CN(CC(C)C)S(C)(=O)=O
    9 | 16
- CCc1nc2cc(NC(=O)C3(C)CCN(C)C3)ccc2o1 (stereo unspecified)
    2 | 6
- O=C(CN(C(=O)Nc1cccc(Br)c1)C1CC1)N(CCc1c[nH]c2ccccc12)Cc1ccc(C(F)(F)F)cc1
    19 | 18
- O=C(/C=C/c1cnccn1)N(Cc1ccccc1)C1CCCCC1
    -1 | 497
- CN(C)c1ccc(NC(=O)C2CCCC2)cc1CN(Cc1ccco1)C(=O)c1ccc(F)cc1
    4 | 21
- COc1cccc(C(=O)N2CCC3(CC2)OCC(C(=O)O)N3C(=O)c2cccc(F)c2)c1 (stereo unspecified)
    9 | 11
- CCC(C(=O)NCCc1cc2ccc(C)cc2[nH]c1=O)c1ccccc1 (stereo unspecified)
    0 | 26
- CN1CCN([C@H]2CN(Cc3cc(C(C)(C)C)ccc3O)C[C@@H]2O)CC1
    10 | 10
- CC(=O)Nc1nnc(SCc2ccc(C(C)(C)C)cc2)s1
    -3 | 11
- O=C(NCCN1CCCC1)c1sccc1-n1cccc1
    2 | -2
- COc1ccc(-c2nc(NC(C)=O)sc2C)cc1[N+](=O)[O-]
    -7 | -14
- Fc1ccc(COC2CCCNC2)cc1 (stereo unspecified)
    21 | 30
- Cc1ccccc1Cn1c(C(=O)N2CCN(C(=O)C3CCCC3)C(C)C2)cc2ccoc21 (stereo unspecified)
    -1 | 8
- CC(C)c1ccc(CN2CCN(Cc3nc(C(=O)N4CCCCC4C)co3)CC2)cc1 (stereo unspecified)
    6 | 3
- CCN1CCCC(CN2CCN(Cc3cccc(Cl)c3)CC2)C1 (stereo unspecified)
    2 | 1
- CC(C)OP(=O)(OC(C)C)C(Nc1ccc(N)cc1)c1cccc(N)c1 (stereo unspecified)
    4 | 4
- Cc1csc2nc(=O)c3ccccc3n12
    -3 | 3
- CCOc1ccccc1C(=O)N1CCCCC1C(=O)OCCc1ccc(OC)c(OC)c1 (stereo unspecified)
    -1 | -5
- COc1ccccc1CNC(=O)C1(C)CCN1C(=O)Cc1ccc(C(C)C)cc1 (stereo unspecified)
    -4 | -4
- C[C@H](CCC(=O)N1CCc2ccccc2C1)[C@H]1CC[C@H]2[C@@H]3C(=O)C[C@@H]4CC(=O)CC[C@]4(C)[C@H]3CC(=O)[C@]12C
    -8 | -13
- Cc1nn2c(=O)c3cc(-c4ccccc4)sc3nc2c2ccccc12
    0 | -1
- CC(C)c1ccsc1C(=O)Nc1cccc(-n2cc[nH]c2=S)c1
    13 | 8
- O=C(CSc1nnc2ccc(-c3cccs3)nn12)c1cccs1
    -12 | -12
- CCONC(=O)c1ccc(CSc2nc(Cl)cc(N3CCN(c4ccccc4F)CC3)n2)cc1
    15 | 14
- O=C1C2C3C=CC(C3)C2C(=O)N1c1cccnc1 (stereo unspecified)
    5&-3 | 4&-6
- COc1cccc(-c2ccc(NC(=O)C3CCCN(C(=O)c4ccoc4)C3)cc2)c1 (stereo unspecified)
    14 | 6
- Cc1nc2sc(C)c(C)n2c(=O)c1NC(=O)c1ccccc1F
    11 | 4

This is a subset. The share of hits here may be higher or lower than overall.
